SmPrx2 inh = Schistosoma Mansoni Peroxiredoxins (Prx2); Schistosoma mansoni peroxiredoxin 2 (Prx2); S. mansoni Prx2 activity coupled to TGR/GSH (TGR is thioredoxin glutathione reductase), NADPH fluorescence loss, qHTS; some inactives read as strong as hits; Potency, µM; actives 0.07% (n = 65,000); AID 448, 2006; active means full or partial inhibition curve with a strong effect at the top dose; inconclusive means weaker partial or single-point curve; inactive means no accepted curve; note: series up to 57 µM; many of its hits are not listed in these tables
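Prx2 inhibition was measured as reduced NADPH consumption when electrons flowed from NADPH through TGR and glutathione to Prx2 and H2O2. Plates were read kinetically over 8 min; enzyme reagents were held at 4 deg C during dispensing.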
LT uptake inh = qHTS Assay for Anthrax Lethal Toxin Internalization; Cells, anthrax lethal toxin internalization, FRET ratio (460/530); Potency, µM (highest dose often 40 µM), inactives show top-dose activity change, negative = inhibition, most hits filed as inhibitors; actives 0.67% (n = 70,000); AID 912, 2007; active = well fitted falling ratio curve with the 530 nm signal flat; inconclusive = other ratio curves, or a change in one channel alone; inactive = flat curves in the ratio and both channels; the % refers to the ratio; note: % is set by controls: 0 for no effect and ±100 for the full control effect; nearly all actives have a fitted effect of over 50% in size; tested in ME-180 cells; beta-lactamase reporter
* hit, by the source's call; ? = inconclusive; . = no result given; [ ] = remark or other dose. Potency is the fitted concentration of half-maximal effect.

SMILES	SmPrx2 inh	LT uptake inh
Cc1ccc(-c2nnn(CC(=O)N(CCO)C(C(=O)NC(C)(C)C)c3ccncc3)n2)cc1 (configuration not stated)	>57	13%
N#CCSc1nnc2ccc3ccccc3n12	>57	-1%
O=C(c1cnn2ccccc12)N(Cc1ccco1)C1CCCC1	>57	0%
O=C(CSc1nnc(-c2ccccc2)n1C1CCCCC1)N1CCCC1	>57	0%
O=C(Nc1cccc(F)c1)N1CCCC2(CCN(C(=O)c3cc(C(F)(F)F)cc(C(F)(F)F)c3)CC2)C1	.	?
CCOC(=O)c1cnc2ccc(C(=O)OC)cc2c1NCCN1CCOCC1	.	5%
CCOC(=O)N1CCC(Nc2c(Nc3cccc(CC)c3)c(=O)c2=O)CC1	>57	?
O=C1Oc2ccccc2C(=O)/C1=C\N1C(=O)N/C(=C\c2ccccc2O)C1=O	>57	?
Cc1cc(C)cc(NC(=O)CN(C)S(=O)(=O)c2cccc3nsnc23)c1	>57	-6%
CCCC[C@@H]1C[C@H]1C(NC(=O)Cc1ccccc1)c1ccc(Cl)cc1 (some centres not stated)	>57	?
CCn1c(C2CC(=O)N(c3ccc(C)c(C)c3)C2)nc2ccccc21 (configuration not stated)	>57	-17%
CCc1nc(NCCCN2CCOCC2)c2oc3ccccc3c2n1	>57	.
CC12CN(Cc3ccccc3)CC(C)(CN(Cc3ccccc3)C1)C2=NO	>57	?
O=C(CCn1c(=O)oc2ccccc21)Nc1ccon1	>57	-18%
COc1ccc(-c2cc3nc(C)cc(C)n3n2)c(OC)c1	>57	?
COC(=O)c1ccc(N(CC(=O)NC2CCCC2)C(=O)CNC(=O)c2ccco2)cc1	>57	13%
N=c1c2c(n(Cc3ccc(Cl)cc3)c3c1CCC3)CCC2	>57	6%
CCCS(=O)(=O)N1CCC(C(=O)NCCCOC(C)C)CC1	>57	-3%
C=CCn1c(O)c(C(CC)=Nc2ccccc2NC(=O)CC)c(=O)[nH]c1=O	>57	.
CC(Nc1nc(N2CCCC2)nc2ccccc12)c1ccccc1 (configuration not stated)	>57	?
O=c1c2ccccc2nc(-c2ccco2)n1CCCn1ccnc1	>57	2%
CCCCc1n[nH]c2c1C(=O)CC(C)(C)C2	>57	5%
CC(=O)c1cc2c(cc1NC(=O)c1cc3nc(C(C)C)cc(C(F)(F)F)n3n1)OCO2	>57	-6%
c1ccc(Nc2ncnc3ccc(-c4ccc5c(c4)OCO5)cc23)cc1	>57	0%
O=C1OC(N2CCN(C(=O)C3CCCO3)CC2)c2ccccc21 (configuration not stated)	>57	?
Cc1cc(C)c2nc3s/c(=C/c4ccc5c(c4)n(C)c(=O)n5C)c(=O)n3c2c1	>57	3%
O=C(Nc1ccccc1Cl)c1cc(S(=O)(=O)N2CCCC(C(=O)O)C2)ccc1F (configuration not stated)	>57	.
COc1ccc(OC)c(-n2nnnc2SCC(=O)NCCc2ccccc2)c1	>57	4%
O=C(Nc1ccccc1N1CCCCC1)c1ccccc1F	>57	?
CCOc1ccc(S(=O)(=O)N2CCN(C(=O)c3cccn3C)CC2)cc1	>57	17%
OCCSCc1cc(Cl)cc(Cl)c1O	>57	0%[8 µM]
COc1ccccc1CN1CCCC2(CCN(C(=O)c3cc(C(F)(F)F)cc(C(F)(F)F)c3)CC2)C1	>57	?
C/C(=N\O)c1ccccc1C(=O)O	>57	3%
Cc1cccc(-c2nnc(SCc3nc4ccccc4[nH]3)n2Cc2ccco2)c1	>57	15%
N#Cc1c(NC(=O)CSc2n[nH]c(Cc3ccccc3)n2)oc(-c2ccccc2)c1-c1ccccc1	>57	?
Cc1ccc(OCc2ccoc2C(=O)O)cc1C	>57	?
O=C(CCN1CCN(c2ccccc2F)CC1)Nc1ccccc1F	>57	-10%
COCCOC(=O)/C=C1/NC(=O)CS1	>57	.
CCCOc1ccccc1C1NC(=O)NC(C)=C1C(=O)OCCOCC (configuration not stated)	>57	-4%
Cc1ccc(CSCCNS(C)(=O)=O)cc1	.	-10%

Part of the list above in order of count of non-hydrogen atoms, highest first.
SMILES	SmPrx2 inh	LT uptake inh
COc1ccccc1CN1CCCC2(CCN(C(=O)c3cc(C(F)(F)F)cc(C(F)(F)F)c3)CC2)C1	>57	?
CC(=O)c1cc2c(cc1NC(=O)c1cc3nc(C(C)C)cc(C(F)(F)F)n3n1)OCO2	>57	-6%
O=C(Nc1ccccc1Cl)c1cc(S(=O)(=O)N2CCCC(C(=O)O)C2)ccc1F (configuration not stated)	>57	.
COc1ccc(OC)c(-n2nnnc2SCC(=O)NCCc2ccccc2)c1	>57	4%
c1ccc(Nc2ncnc3ccc(-c4ccc5c(c4)OCO5)cc23)cc1	>57	0%
O=C(CCN1CCN(c2ccccc2F)CC1)Nc1ccccc1F	>57	-10%
O=c1c2ccccc2nc(-c2ccco2)n1CCCn1ccnc1	>57	2%
O=C1OC(N2CCN(C(=O)C3CCCO3)CC2)c2ccccc21 (configuration not stated)	>57	?
O=C(Nc1ccccc1N1CCCCC1)c1ccccc1F	>57	?
Cc1ccc(OCc2ccoc2C(=O)O)cc1C	>57	?
Cc1ccc(CSCCNS(C)(=O)=O)cc1	.	-10%
COCCOC(=O)/C=C1/NC(=O)CS1	>57	.
C/C(=N\O)c1ccccc1C(=O)O	>57	3%

Next part
SMILES	SmPrx2 inh	LT uptake inh
O=C(O)c1ccc(-n2nnnc2Oc2ccccc2C(=O)N2CCOCC2)cc1	>57	1%
CC(c1ccco1)N(C(=O)c1cccs1)c1ccccn1 (configuration not stated)	>57	4%
Cc1c(Cl)cccc1NC(=O)CC1SCCNC1=O (configuration not stated)	?	-8%
Cc1ccc(NC(=O)N2CCCC2C(=O)NCCc2ccccc2)cc1 (configuration not stated)	>57	-2%
COC(=O)c1ccc(C(NC(=O)OCc2ccccc2)/C(C)=C/[C@@H](C)C(=O)NCc2cc(C)on2)cc1 (some centres not stated)	.	0%
COC(=O)c1cnn2c(C)c(Cc3cccc(F)c3)c(C)nc12	>57	0%
COc1ccccc1-c1cc(C(=O)Nc2cccnc2)no1	>57	?
CCCC(=N)C1=C(O)CC(CC(C)SCC)CC1=O (configuration not stated)	>57	9%
CCOC(=O)Cn1c2ccc(OC)cc2c2nc3ccccc3nc21	>57	-16%
COc1cc2cc(C(c3nnnn3Cc3ccc(F)cc3)N3CCCCCC3)c(=O)[nH]c2cc1OC (configuration not stated)	>57	12%
CCCn1nc(-c2nnc(-c3ccc(C)c(C)c3)o2)c2ccccc2c1=O	>57	-16%
O=c1cc(-c2ccccc2O)oc2c1ccc1ccccc12	>57	?
COC(=O)CCCCC(=O)C1C(=O)CC(C)(C)C(C(=O)OC)C1=O (configuration not stated)	>57	5%
CN(C)C(=O)N1CCN(C(=O)c2ccccc2Sc2ccccc2C#N)CC1	>57	5%
O=c1/c(=C/c2ccc(CNS(=O)(=O)c3ccccc3)o2)sc2n1CCN=2	.	-29%
COc1ccc2c(c1)CCC(C)N2S(=O)(=O)c1ccc(C2CNC(=O)C2)cc1 (configuration not stated)	>57	?
OCCNc1nc(Nc2ccccc2)nc(Nc2ccccc2)n1	>57	-29%
O=C(NCC1COc2ccccc2O1)c1c[nH]c2ccc(S(=O)(=O)N3CCOCC3)cc2c1=O (configuration not stated)	>57	10%
Cc1ccc(NC(=O)CN2CC(C)SC2=NC2CCCCC2)cc1 (configuration not stated)	>57	0%
COCCOc1nc2c(c(=O)n(C)c(=O)n2C)n1CCc1ccccc1	>57	-5%
CN(C)CCNC(=O)c1c(O)c2c([nH]c1=O)CCCC2	>57	11%
C[C@@H](N1CCOCC1)[C@@](O)(c1ccccc1)c1ccccn1	>57	-2%[8 µM]
O=S(=O)(c1ccccc1)N1CCC[C@@]2(CCN(c3ccccc3)C2)C1	>57	?
COCCN(C(=O)Cc1cccs1)c1nnc(-c2cccnc2)s1	>57	8%
O=C(O)CCCC(=O)N1CCN(c2cccc(Cl)c2)CC1	.	-5%
CCOC(=O)CSc1nc2c(sc3ccccc32)c(=O)n1CCCN1CCOCC1	>57	18%
COc1ccccc1-c1cncnc1NCCN1CCOCC1	>57	7%
Cc1nnc(SCC(=O)Nc2ncc3c(n2)CCCC3=O)s1	>57	1%
COc1ccc2c(c1)c1c(n2C(C)=O)C(OC(C)=O)=NCC1	.	26%
Cn1c(CCN2CCCCC2)nc2cc(NS(=O)(=O)c3ccc(F)cc3)ccc21	>57	13%
CC(C)=CC(=O)Nc1ccccc1Br	>57	10%
NC(=O)OC[C@H](O)COc1ccc(Cl)cc1	>57	2%[3.58 µM]
CC(NC(=O)c1ccc2c(c1)OCCO2)C(=O)O (configuration not stated)	>57	7%
COCCn1c(=S)[nH]c2cc(OC)c(OC)cc2c1=O	>57	13%
Cn1nnnc1SCC(=O)Nc1ccc(Cl)cc1Cl	>57	15%
Cc1cc(NC(=O)CSc2nnc3c(C)cc4cc(C)c(C)cc4n23)no1	>57	5%
CCCCCCn1c(=O)c(C(=O)Nc2ccncc2)c(O)c2ccccc21	>57	15%
CCOC(=O)C1=C(C)NC(=O)NC1c1ccc(OCC(=O)Nc2ccccc2)c(OC)c1 (configuration not stated)	>57	-19%
Cc1cccc(OCC(=O)N2CCC(c3ccccc3)C2)c1 (configuration not stated)	.	-7%
CC(=O)NCCn1c(SCC(=O)NCC2CCCO2)nc2ccccc2c1=O (configuration not stated)	>57	22%

Record cards (already shown):
`CCOC(=O)C1=C(C)NC(=O)NC1c1ccc(OCC(=O)Nc2ccccc2)c(OC)c1` (configuration not stated) is listed with SmPrx2 inh: >57; LT uptake inh: -19%
`Cc1cccc(OCC(=O)N2CCC(c3ccccc3)C2)c1` (configuration not stated) is listed with SmPrx2 inh: .; LT uptake inh: -7%

Next section.
SMILES	SmPrx2 inh	LT uptake inh
COC(=O)CCCCCC(CCC(=O)OC)NC(C)=O (configuration not stated)	.	-2%
Cc1ccc2cccnc2c1	.	?
CCCCOc1ccc(C(=O)Nc2ccc(N3CCN(C(=O)C(C)C)CC3)cc2)cc1	>57	-12%
CCCOC(=O)c1c(-c2ccccc2)nc(CC)c(C(=O)SCC)c1CCC	>57	?
O=C(CSc1nc(-c2ccncc2)nn1CC(=O)N1CCCCC1)NC1CCCC1	>57	-12%
CS(=O)(=O)Nc1ccc(C(=O)NCC2CCCO2)cc1 (configuration not stated)	>57	14%
COCCn1c(N2CCN(c3ccc(OC)cc3)CC2)nc2c1c(=O)n(C)c(=O)n2C	>57	-14%
Cc1cccc(NC(=O)Cn2cnc3c(cnn3-c3ccc(F)cc3)c2=O)c1C	>57	2%
COc1ccc(N2CCN(c3nc(NC(C)(C)C)nc(N4CCCCC4)n3)CC2)cc1	>57	?
C[C@@H](C(=O)NCCc1c[nH]c2ccccc12)[C@@H]1C[C@@]1(C)[C@@H](NC(=O)OCc1ccccc1)c1ccccc1	>57	?
O=S(=O)(c1cc(Cl)ccc1Cl)N1CCCCC1	>57	-22%
O=C(O)C1C2C=CC(C2)C1C(=O)NC1CCS(=O)(=O)C1 (configuration not stated)	>57	-9%
COc1ccc(C(=O)OC2C[C@H]3CC[C@@H](C2)N3C)cc1OC (some centres not stated)	>57	?
CCOc1ccccc1N(CC(=O)O)S(=O)(=O)c1ccccc1	>57	-19%
Cn1c(CNC(=O)C(C)(C)C)nc2ccccc21	>57	-20%
O=C(CN1CCOCC1)Nc1c2c(nc3ccccc13)N(Cc1ccccc1)CC2	>57	7%
CCOC(=O)N1CCC(NC(=O)C2=C(C)C(=O)OC23CCC(C)CC3)CC1 (configuration not stated)	>57	0%
CCOC(=O)c1cc2sccc2n1CC(=O)c1ccc2c(c1)OCCO2	>57	7%
O=C(NCc1ccco1)c1cc(S(=O)(=O)N2CCOCC2)c(Cl)cc1Cl	>57	-8%
CCOc1cc(C#N)c(NC(=O)CSc2nnnn2-c2ccc(OC)cc2)cc1OCC	>57	6%
CCN(CC)C(=O)CSc1ncnc2c(-c3cccs3)nsc12	>57	-9%
Cc1cc(=O)n(C)c(=O)n1CCCCCN1CCCC1	>57	-10%
COc1ccc(N(CC(=O)N2CCCC(C)C2)S(=O)(=O)c2c(C)nn(C)c2C)cc1 (configuration not stated)	>57	-11%
O=C(O)CC(NS(=O)(=O)c1cccc2nsnc12)c1ccc(F)cc1 (configuration not stated)	>57	5%
Cc1ccc(Cn2ncc3c(N4CCN(c5ccccc5C)CC4)ncnc32)cc1	>57	?
O=C(CSc1ccc2nnc(-c3ccncc3)n2n1)Nc1ccc2c(c1)OCCO2	>57	25%
CCCCCC(=O)N(CN1C(=O)CCC1=O)c1ccccc1	>57	2%
O=C1C2C(C(=O)N1CC1CCCO1)C1C=CC2C12CC2 (configuration not stated)	.	-13%
Cn1cc(-c2nc3cnc(Oc4ccccc4)nc3n(C3CC3)c2=O)c2ccccc21	>57	?
COc1ccccc1NC(=O)c1oc2ccc(C)cc2c1C	.	?
Cc1[nH]cnc1CSCCN	>57	1%
CC1(C)Cc2nc3sc4c(=O)[nH]cnc4c3cc2CS1	>57	10%
COc1cc(OC)cc(C(=O)NCc2n[nH]c(=S)n2-c2ccccc2)c1	>57	-25%
COc1ccc(-c2cn3c(n2)CCC3)cc1	>57	2%
CCOC(=O)N1CCN(C(=O)CN(Cc2ccccc2)S(C)(=O)=O)CC1	>57	-2%
CC1(C)CO[C@H](CC(=O)O)CN1	>57	-11%

As entered above:
SmPrx2 inh with COc1ccc(C(=O)OC2C[C@H]3CC[C@@H](C2)N3C)cc1OC (some centres not stated) is entered as >57
SmPrx2 inh with O=c1c2ccccc2nc(-c2ccco2)n1CCCn1ccnc1 is entered as >57

Source: PubChem

Some of the compounds tested, so the mix of outcomes need not match the whole.
